# hNpr1 antagonist: Natriuretic polypeptide receptor (hNpr1) antagonism - Primary qHTS. Atrial natriuretic peptide receptor 1 (Homo sapiens), P16066. HEK293 hNpr1 GloSensor cGMP, ANP-stimulated luminescence. Potency, µM (top dose mostly 46.3 µM), for inactives: top-dose activity change, negative = inhibition, usual class: inhibitors. 76,000 tested, 1.6% active. AID 1347048, 2019; active = well fitted inhibition curve with a large enough effect; inconclusive = small, poorly fitted or top-dose-only effect; inactive = no such curve, though single readings can be large or run the other way;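 note: nearly all actives have a fitted effect of over 60% in size; nearly all hits also lower the signal before the agonist is added; a reference antagonist and vehicle were the controls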
# Target sequence (P16066 whole entry, looked up): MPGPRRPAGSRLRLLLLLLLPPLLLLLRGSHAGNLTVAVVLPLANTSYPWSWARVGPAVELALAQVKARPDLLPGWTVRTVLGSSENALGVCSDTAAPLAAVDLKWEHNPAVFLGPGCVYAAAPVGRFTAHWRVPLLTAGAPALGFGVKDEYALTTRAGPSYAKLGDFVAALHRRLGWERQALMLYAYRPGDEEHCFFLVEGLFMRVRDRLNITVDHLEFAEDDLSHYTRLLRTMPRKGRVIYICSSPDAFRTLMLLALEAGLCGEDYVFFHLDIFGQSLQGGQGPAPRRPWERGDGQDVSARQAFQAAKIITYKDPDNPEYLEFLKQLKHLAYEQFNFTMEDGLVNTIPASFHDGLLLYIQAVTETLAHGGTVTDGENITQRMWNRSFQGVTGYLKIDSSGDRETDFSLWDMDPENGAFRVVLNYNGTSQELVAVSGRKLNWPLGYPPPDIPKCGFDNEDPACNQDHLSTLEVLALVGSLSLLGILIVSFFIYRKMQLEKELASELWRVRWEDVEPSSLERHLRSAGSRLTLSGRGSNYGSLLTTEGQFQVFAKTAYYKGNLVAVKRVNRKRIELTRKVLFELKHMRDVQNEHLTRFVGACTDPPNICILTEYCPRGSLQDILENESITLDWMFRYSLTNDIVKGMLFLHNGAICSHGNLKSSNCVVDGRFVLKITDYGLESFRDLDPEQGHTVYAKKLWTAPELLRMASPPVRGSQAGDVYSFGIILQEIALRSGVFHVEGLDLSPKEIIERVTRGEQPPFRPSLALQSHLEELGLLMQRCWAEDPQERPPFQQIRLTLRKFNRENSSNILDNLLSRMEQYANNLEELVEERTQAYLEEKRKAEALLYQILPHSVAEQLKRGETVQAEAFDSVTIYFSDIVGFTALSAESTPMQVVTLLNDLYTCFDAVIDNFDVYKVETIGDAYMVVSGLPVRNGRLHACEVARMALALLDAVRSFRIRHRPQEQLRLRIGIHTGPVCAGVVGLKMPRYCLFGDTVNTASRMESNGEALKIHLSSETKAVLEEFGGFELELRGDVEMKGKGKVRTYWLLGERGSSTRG
#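 HEK293 cells stably expressing human Npr1 and cGMP GloSensor pGS-40F, loaded 2 h with 2% GloSensor reagent, given compound 30 min at room temperature. Luminescence read before and 20 min after 0.1 nM hNppA.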
# Starred values were filed as active, the others as inactive; ? = inconclusive; [ ] = dose if it differs, or a comment. % is set by controls: 0 for no effect and ±100 for the full control effect; potency is the fitted concentration of half-maximal effect.
SMILES,hNpr1 antagonist
Cn1nccc1CN1CCC2(CNc3ccccc3[S+](=O)([O-])N2)C1 (stereo not drawn),11%[70.6 µM]
CC(=O)Nc1ccc(CN2CCC(c3nc4ccc(C)cc4c(=O)[nH]3)CC2)cc1,5%
COc1cccc(CN2C(=O)C3(CCOCC3)CC2c2nnnn2C(C)(C)C)c1 (stereo not drawn),4%
CC(=O)N1CC2(CCN(CCCn3ccnc3C)CC2)CC1C(=O)O (stereo not drawn),14%
CC(C)(C)CC(=O)N1CCN2C(=O)c3cc(-c4ccc5c(c4)OCO5)ccc3NC(=O)[C@H]2C1,3%
CNC(=O)c1cc[nH]c1C1CCCN(C(=O)NC(C)(C)C)C1 (stereo not drawn),8%
CCc1cccc(NC(=O)CN2C(=O)NC(c3ccc(Cl)cc3)C3=C2COC3=O)c1 (stereo not drawn),-28%
CCCN(C)c1nccnc1OC1CCN(C(=O)c2ccc(OC)cc2)C1 (stereo not drawn),-15%
COc1ccc(C(=O)NC[C@H]2COCc3nc4cc(C(F)(F)F)ccc4n32)cc1,0%[70.6 µM]
COCC(=O)N1CCN(c2nc3ncccc3o2)CC1,3%[70.6 µM]
CNc1ccc(C)cc1C(=O)N1CCC2(CCCN(C)CC2)CC1,-1%
COc1ccc(CN2CCOc3nc(-c4cccc(N(C)C)c4)ncc3C2=O)cc1,-2%[70.6 µM]
CC(C)COc1cc(=O)n2c(c1C(=O)NC1CCN(C)CC1)CCCCC2,-3%
CCOc1cc(=O)n2c(c1C(=O)NCc1ccccc1F)CCCCC2,1%
Cc1noc(-c2cccs2)c1C(=O)NCCCCc1ccccc1,0%
CN(Cc1cc(-c2ccccc2)on1)C(=O)CN1C[C@@H]2CC[C@H](CC1=O)N2,-1%
Cc1cc(C(=O)N2CCc3c(nc(C)nc3N(C)C)C2)c2cccc(C)c2n1,-5%
COCC(=O)N(C)Cc1cccc(C(F)(F)F)c1,21%[70.6 µM]
CC(O)CN1CC2(CCC1=O)CCN(CCCn1ccnc1)CC2 (stereo not drawn),0%
CCOc1cccc(CN2CC(Oc3ccccc3C(=O)NC3CC3)C2)c1,-4%
COCCCNc1ccc2nnc(-c3ccc(C)cn3)n2n1,-6%[70.6 µM]
CC(C)CCN1CCNC(=O)C1CC(=O)N(Cc1cnn(C)c1)C1CC1 (stereo not drawn),3%
O=C(NCC12CCC=C1N(CC1CC1)C(=O)CC2)C1CCOCC1 (stereo not drawn),4%
CCC1Oc2ccc(NC(=O)COC)cc2CN(Cc2cc(F)cc(F)c2)C1=O (stereo not drawn),-5%
COc1ccc(-c2cc3nc4c(c(=O)n3[nH]2)CCN(C(=O)c2ccccc2C)C4)cc1,-19%
O=C(c1ccc2c(c1)OCO2)N1CCC2(CC1)NC(=O)N(c1ccccc1Cl)N2,-3%
Fc1cc(F)cc(Cc2nc3nccc(-c4cc5ccccc5o4)n3n2)c1,0%
Cc1ccc(C2(O)CCN(C(=O)c3ccc4ncccc4c3)CC2)nc1,2%
Cc1nn(-c2ccc(F)cc2)c(Oc2ccc(F)cc2F)c1CCC(=O)N(C)C(C)C,-18%
Cc1cccc(N2C(=O)CSC23CCN(C(=O)C2CC2)CC3)c1,2%

# As a working copy, some entries already given.
SMILES,hNpr1 antagonist
CN(Cc1cc(-c2ccccc2)on1)C(=O)CN1C[C@@H]2CC[C@H](CC1=O)N2,-1%
Cc1cc(C(=O)N2CCc3c(nc(C)nc3N(C)C)C2)c2cccc(C)c2n1,-5%
COCC(=O)N(C)Cc1cccc(C(F)(F)F)c1,21%[70.6 µM]
CC(O)CN1CC2(CCC1=O)CCN(CCCn1ccnc1)CC2 (stereo not drawn),0%

# Carrying on.
SMILES,hNpr1 antagonist
CC(C)c1ccc(NC(=O)O[C@@H]2CO[C@H]3[C@@H]2OC[C@@H]3NC(=S)NC2CCCCC2)cc1,-2%
O=C(c1ccc2cc[nH]c2c1)N1CCCC(Cc2noc(-c3cnccn3)n2)C1 (stereo not drawn),0%
CN1CC2(CCN(Cc3ccc(CCC(C)(C)O)cc3)CC2)OC1=O,2%
CN(CCc1noc(C2CN(C(=O)CN3CCCCCC3)C2)n1)S(C)(=O)=O,-2%
COc1ccc(-c2nc(C3CC(=O)N(Cc4ccccc4OC)C3)no2)c(C)c1 (stereo not drawn),-2%
COc1ccc(CN2C[C@@H](C(N)=O)[C@H](c3nc(C)no3)C2)cc1Cn1cccn1,0%
O=C(CCCc1ccccc1)N1C[C@@H](CO)[C@H](c2nc(C3CC3)no2)C1,-8%
O=C(NCc1ccc(Cl)s1)C1CCCN(C2CCN(C(=O)C3CC3)CC2)C1 (stereo not drawn),11%
O=C(NCCc1ccc(Cl)cc1)c1nc(-c2cccnc2)c2cnccn12,-4%
Cc1nc(CN2Cc3nc(-c4cnn(Cc5ccccc5)c4)ccc3OCC2=O)cs1,?
O=C(C[C@@H]1CCNC[C@@H]1Cc1cc(CC2CCCCC2)on1)N1CCC(Cc2ccccc2)CC1,-2%
Cc1ccc(CN2CCCCCCNC(=O)[C@@H]3C[C@@H](C(=O)N4CCN(c5ccccn5)CC4)C[C@@H]32)o1,-12%
CC(C)Oc1cc(-c2ccc(C(C)N3CCOCC3)cc2)nc(N)n1 (stereo not drawn),1%
O=C(c1ccc(C(F)(F)F)cc1)N1CCn2c(nnc2-c2ccccc2)C1,6%
CCCCc1ncc(CN2CCCC(C(=O)Nc3ccccc3-c3ccc(OC)cc3)C2)[nH]1 (stereo not drawn),-15%
Cc1cc(CN2C[C@@H](CO)[C@H](c3nc(C)no3)C2)n(C)n1,3%
CC(C)S(=O)(=O)N1CCC2(CC1)CC(N(C)Cc1ccccc1)CCO2 (stereo not drawn),-17%
CNC(=O)[C@@H](c1ccc(OC)cc1)N1CCC[C@H]1C(=O)NCC1CCCCC1,0%[70.6 µM]
CCn1c2c(c(=O)n1Cc1ccccc1)CCN(Cc1nccs1)C2,-1%[70.6 µM]
Cc1ccc(C(=O)N2CC[C@H]3C(=O)NCCCCCCN(Cc4ccncc4)[C@@H]3C2)s1,-3%
CSc1cccc(NC(=O)Cn2ccn3nc(-c4ccc(F)cc4)c(CO)c3c2=O)c1,-4%
O=C1C2CN(Cc3ccccc3Cl)CCC2OCCN1Cc1ccccc1 (stereo not drawn),2%[70.6 µM]
COc1ccc(-c2nnc3n2CCN(C(=O)Cc2ccc(F)cc2)C3)cc1,-13%
CCN1CCN(C(=O)C2CCc3sc(C(=O)N4CCCCC4)cc3C2)CC1 (stereo not drawn),1%
Cc1onc(-c2ccccc2Cl)c1-c1nc(C2CCOC2)no1 (stereo not drawn),5%
c1cnc2nc(C3CCCN3)[nH]c2c1 (stereo not drawn),14%[70.6 µM]
COCCNC(=O)[C@@H]1C[C@H](Oc2ccccc2)CN1C(=O)c1cnccc1C,7%
CCNC(=O)N1CCC(N2C(=O)C(OCC3CC3)C23CCCCC3)CC1 (stereo not drawn),2%
O=C(O)C[C@@H]1CCN(Cc2c[nH]c3ccccc23)C[C@@H]1CCN1C[C@@H]2C[C@H](C1)c1cccc(=O)n1C2,7%
CCc1ccc(S(=O)(=O)N2[C@@H]3CC[C@H]2CC(NC(=O)c2ccncc2)C3)cc1 (stereo partly drawn),-3%
CCOCCOc1cccc(C(=O)N2C[C@@H](N(C)C)[C@H](C(C)C)C2)c1,0%
COCCCN1CC2(CCN(C(=O)c3cc(C(C)C)oc3C)CC2)CC1=O,-1%
CCc1csc(CNC(=O)c2ccc(N(C)Cc3nonc3C)nc2)n1,1%
CN1CCN(c2cc(=O)c3ccnc(N4CCN(c5ccccn5)CC4)c3o2)CC1,3%[70.6 µM]
Cc1noc([C@@H]2CN(C(=O)c3cc(C)oc3C)C[C@H]2COCC2CC2)n1,-15%
Cc1[nH]cnc1-c1nccn1CCCOC1CCN(C)CC1,0%
COc1cccc(CN2CC(Oc3ccccc3C(=O)NC3CC3)C2)c1,1%
CC1=NS(=O)(=O)N(C)C=C1C(=O)OCc1noc(-c2ccco2)n1,?
CC(=O)Nc1ccc(CC(=O)N2CCCC(Cc3nncn3-c3ccccc3)C2)cc1 (stereo not drawn),4%
COc1ccc(-n2nc(C3CCCN(Cc4cccc5ccccc45)C3)[nH]c2=O)cc1 (stereo not drawn),0%
COc1ccc2[nH]c3c(c2c1)CCNC31CCN(C(=O)Cc2ccncc2)CC1,6%
Cc1ccc2[nH]c(=O)c(CCC(=O)NC(C)C)cc2c1,3%
Cc1ccc(CSc2nc(N)cc(N3CCN(CCCO)CC3)n2)cc1,1%
COC[C@@H]1CN(C(=O)COc2ccc(Cl)cc2)C[C@H]1C(N)=O,0%
CCc1noc(-c2nc(-c3ccc(OC)c(F)c3)no2)n1,-1%
Cc1oc(-c2cccc(Oc3ccccc3)c2)nc1CN(C)CCCO,7%
C[S+](=O)([O-])N1CCC2(C1)N=C(c1ccncc1)C(=O)N2 (stereo not drawn),0%[70.6 µM]
Cc1ccc2c(C)c(C(=O)NC3CC(c4nnc(CN(C)C)n4C)C3)oc2c1 (stereo not drawn),-17%
CN(C)C(=O)N1CCn2nc(CNC(=O)c3cccc(-n4cnnc4)c3)cc2C1,6%
CC1=C[C@@H](CNC(=O)Cc2ccccc2)[C@H](C(C)C)C[C@H]1Cc1nc2ccncc2[nH]1,-27%[70.6 µM]
COc1cccc(CC(=O)N2CCC([C@@H]3CNC[C@H]3CO)CC2)c1,8%
Cn1cccc1CN1CCC2(CC1)C(=O)NCN2Cc1ccc(Cl)cc1,0%
COc1ccc(CN2C(=O)CO[C@H]3CN(C(=O)C4CC4)C[C@H]32)cc1,3%[70.6 µM]
CC(C)(C)n1ccc(C(=O)N2CCC3(CCC(=O)N(CCCO)C3)CC2)c1,2%
COCC(=O)NC1CCC12CCN(Cc1ccc(C)o1)CC2 (stereo not drawn),5%
O=C(CN1C(=O)NC2(CCOCC2)C1=O)Nc1ccc2c(c1)OCCO2,3%
N#Cc1ccccc1N1CCN(C(=O)CCc2nc3ccccc3[nH]2)CC1=O,-8%
O=C(NCc1ccc(F)cc1)C1CN(c2ccc(Cl)cc2)C(=O)N1 (stereo not drawn),8%
COc1cccc(C2Cn3nnc(-c4nc(-c5ccc(C)c(C)c5)no4)c3CO2)c1 (stereo not drawn),2%
CN(C)C[C@@H]1CN(Cc2ccncc2)C[C@H]1NC(=O)c1ccc(Cl)cc1,-10%

# Part of the list above in order of number of heavy atoms, highest first:
SMILES,hNpr1 antagonist
Cc1ccc2c(C)c(C(=O)NC3CC(c4nnc(CN(C)C)n4C)C3)oc2c1 (stereo not drawn),-17%
O=C(NCc1ccc(F)cc1)C1CN(c2ccc(Cl)cc2)C(=O)N1 (stereo not drawn),8%
COCC(=O)NC1CCC12CCN(Cc1ccc(C)o1)CC2 (stereo not drawn),5%

# Some values from the entries so far.
# `O=C(NCc1ccc(F)cc1)C1CN(c2ccc(Cl)cc2)C(=O)N1` (stereo not drawn) | hNpr1 antagonist: 8%
# `COc1cccc(CC(=O)N2CCC([C@@H]3CNC[C@H]3CO)CC2)c1` | hNpr1 antagonist: 8%
# `C[S+](=O)([O-])N1CCC2(C1)N=C(c1ccncc1)C(=O)N2` (stereo not drawn) | hNpr1 antagonist: 0%[70.6 µM]
# `CN(C)C[C@@H]1CN(Cc2ccncc2)C[C@H]1NC(=O)c1ccc(Cl)cc1` | hNpr1 antagonist: -10%

# (more compounds)
SMILES,hNpr1 antagonist
COc1ccc(C(=O)NC2CCN(c3cc(-c4cccs4)[nH]n3)CC2)cc1,0%
Cc1ccc(OCC(=O)NC2CCN(c3cc(-c4ccccc4)[nH]n3)CC2)cc1,-23%
O=C(c1cccc(Cl)c1)N1CCC2(CC1)OCC(C(=O)N1CCCC1)N2C(=O)c1cccc(F)c1 (stereo not drawn),-1%
COc1cccc(CC(=O)N2CCCn3nc(C)c(-c4ccccc4Oc4ccccc4)c32)c1,?
CC(=O)N1CCN(C(=O)c2cnc(-c3cccnc3)nc2)CC(O)C1 (stereo not drawn),-12%
COc1ccc(CNC(=O)Cn2c(N3CCc4ccccc4C3)nc(C)cc2=O)cc1,-10%
CN1CCOc2nc(-c3ccc(Oc4ccccc4)cc3)ncc2C1=O,25µM*
CCc1cccc2c(C(CC(=O)NCc3ccc(F)cc3)c3cccc(OC)c3OC)c[nH]c12 (stereo not drawn),0%
O=C(NCc1ccccc1F)c1ccc2c(c1)CN(Cc1cccc(F)c1F)CCO2,6%
CC(C)n1cc(CN2CCCC23CCN(c2ccc(C(F)(F)F)cn2)CC3)cn1,?
Cc1cc(C(F)(F)F)nc(CNC(=O)c2ccc3cccc(F)c3n2)n1,5%
CCn1ccc2sc(C)c(C(=O)NCc3cccc(Cl)c3)c2c1=O,-13%
COCc1noc([C@@H]2CN(Cc3ccc4c(c3)CCO4)C[C@H]2COC)n1,12%
CCOc1ccc(NC(=O)CN2C(=O)NC3(CCOCC3)C2=O)cc1,8%
CN1CCC2(C1)CN(CC1CCOCC1)c1ccc(C(=O)NCCCn3ccnc3)cc12 (stereo not drawn),9%[70.6 µM]
COc1cccc(C2Cn3nnc(-c4nc(-c5ccccc5C)no4)c3CO2)c1 (stereo not drawn),-9%
CC(=O)N1CCN(C(=O)C[C@@H]2c3nc(NC(=O)c4cccs4)sc3C[C@@H]3[C@](C)(CO)[C@H](O)CC[C@]32C)CC1,-2%
Cc1noc(-c2ccc(OC3CN(C(=O)c4ccco4)C3)cc2)n1,-16%

# Bioassay records as filed in PubChem BioAssay.

# Not all compounds are listed; the hit share may differ from the screen's.
